# Screening results as filed in PubChem BioAssay.
# Vif TR-FRET: inhibitors of Vif binding to APOBEC3G peptide, primary screen, biochemical, TR-FRET, GST-Vif 1-94, biotin-A3G peptide, dose response retest (AID 1117319) | TR-FRET GST-Vif / biotin-A3G peptide binding; higher % means a stronger effect; test concentration not given here; strong numbers were not always called active | inhibition, %; hits with a dose series show IC50 in µM | 260,000 tested, 0.57% active;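 active = above the screen mean plus three standard deviations and confirmed in dose response; inconclusive = results disagree or hit not tested in dose response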;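 note: Vif residues 1-94 fused to GST binding biotinylated APOBEC3G peptide 110-148; 0% = full assay without inhibitor and 100% = GST in place of GST-Vif; retest series ran down from 100 µM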
# T cruzi inh: blocks replication of Trypanosoma cruzi; T. cruzi beta-gal in NIH3T3, luminescence, 90 h; inhibition, % (concentration not given with the values); 300,000 tested, 1.4% active;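 active = mean inhibition across valid replicates above about 55%, limit read from the data; inconclusive = mean below that limit but half or more replicates reach it; inactive = mean below it, under half of replicates reach it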;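 note: signal also drops with host cell toxicity which is not excluded here; 0% = plate median of DMSO wells and 100% = zero luminescence signal; higher percent means less beta-gal luminescence so fewer parasites; stock transfer was 50 nL into about 50 µL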
# Calb FLC: C. albicans growth modulation with fluconazole. growth inhibition, % (concentration not given with the values). 300,000 tested, 0.57% active. C. albicans CaCi-2 (fluconazole-resistant clinical isolate) + fluconazole, Alamar Blue growth, 48 h. AID 1979;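 active = most replicates above 75%; inconclusive = exactly half above 75%; inactive = most below 75%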;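 note: all wells also contain fluconazole at 8 µg/ml as a sub-toxic cotreatment; 0% = median of DMSO wells and 100% = median of geldanamycin control wells; wells of about 8 µL received 7.5 nL stock; the first replicate is given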
# AF4-AF9 inh: blocks AF4 peptide binding to human AF9; AID 651704; 350,000 tested, 0.47% active; AlphaScreen, biotin-AF4 peptide binding to FLAG-AF9; P42568; inhibition, % at 10 µM;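 active = every replicate reaching a set inhibition limit, whatever the replicate mean, cut at about 25% in these data; inconclusive = mean inhibition reaches that limit but some replicates miss it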;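 note: 0% = plate neutral control median and 100% = total signal loss; the record names both 10 and 1 µM as test concentration; the first replicate is given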
# Target sequence (P42568 whole entry, looked up): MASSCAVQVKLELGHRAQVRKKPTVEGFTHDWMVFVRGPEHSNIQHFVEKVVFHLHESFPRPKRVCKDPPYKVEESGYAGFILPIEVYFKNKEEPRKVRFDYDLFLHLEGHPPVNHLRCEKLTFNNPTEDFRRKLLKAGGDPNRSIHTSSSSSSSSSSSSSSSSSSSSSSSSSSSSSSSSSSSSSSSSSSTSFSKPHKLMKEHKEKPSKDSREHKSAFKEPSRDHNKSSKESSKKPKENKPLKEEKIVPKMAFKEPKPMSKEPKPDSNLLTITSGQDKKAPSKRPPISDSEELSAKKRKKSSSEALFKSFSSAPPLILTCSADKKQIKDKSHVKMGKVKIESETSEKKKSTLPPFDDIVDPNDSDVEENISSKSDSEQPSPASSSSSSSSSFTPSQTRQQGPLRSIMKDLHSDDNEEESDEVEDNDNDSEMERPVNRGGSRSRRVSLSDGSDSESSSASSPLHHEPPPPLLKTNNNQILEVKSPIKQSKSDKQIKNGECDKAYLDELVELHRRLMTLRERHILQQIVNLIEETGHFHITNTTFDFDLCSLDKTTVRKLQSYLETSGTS
# LANA-H2B inh: blocks KSHV LANA binding to histone H2A/H2B; inhibition, % (test concentration not listed); cell-free LANA-H2A/H2B peptide, fluorescence polarization; Q9QR71; 320,000 tested, 0.6% active; AID 2629; in the data active = inhibition mostly above about 10%, no sharp cut-off; inactive = mostly below about 6.7%;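 note: stock transfer was 7.5 nL into about 10 µL; 0% = median of vehicle wells and 100% = median of positive control wells; one replicate is shown; the record names a cut of 25% in any replicate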
# RanGTP-Imp inh: inhibitors of RanGTP-importin-beta interaction, primary screen, biochemical, FRET, CFP-Ran, YFP-importin-beta, homogeneous; AID 2216; inhibition, % (no concentration beside the values); cell-free CFP-Ran/YFP-importin-beta FRET ratio; 300,000 tested, 1.1% active;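 active = most replicates above 15%; inconclusive = exactly half above 15%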;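 note: 0% = DMSO wells and 100% = Ran loaded with GDP instead of GTP; wells of about 40 µL received 100 nL stock; the first replicate is given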
# Beta cell apopt: beta cell apoptosis inhibition. INS-1E cytokine-induced death, ATP luminescence, 48 h; percent of positive-control rescue, neutral wells zero. protection from apoptosis, % (concentration not given with the values). 300,000 tested, 0.8% active;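 active = all replicates at 75% or more, or half of them and the mean; inconclusive = half reach 75% but not the mean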;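 note: 0% = cytokine-treated negative control wells and 100% = positive control rescue; higher means more ATP so stronger rescue from cytokine killing; wells of about 40 µL received 100 nL stock; the first replicate is given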
# Bfl-1 A1 inh: inhibitors of the anti-apoptotic protein A1, read as caspase activation | MEF A1-2A-BIM cells, Caspase-Glo 3/7 luminescence, 3 h; percent of clofoctol response, vehicle zero | caspase activation, % (test concentration not listed) | 330,000 tested, 0.066% active | AID 2462;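 active = over half of replicate activation scores above 10%, or exactly half above 10 with the replicate mean above 10; inconclusive = replicate mean below 10 yet half the replicates above 10; inactive = over half of replicates below 10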;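 note: wells of about 30 µL received 50 nL stock; many hits fall short of the cut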
# * hit, by the source's call; ? = inconclusive; · = not tested or not shown; & = joins results of further samples.
SMILES,Vif TR-FRET,T cruzi inh,Calb FLC,AF4-AF9 inh,LANA-H2B inh,RanGTP-Imp inh,Beta cell apopt,Bfl-1 A1 inh
O=C(Cc1cccs1)N1CCN(c2nc(-c3ccc(Cl)cc3)cs2)CC1,-32%,5,3,13,-2.2,-2.2,4,0.5
COc1ccc(-c2nnc(-c3ccc(OCC(C)C)cc3)o2)cc1,18%,-6,7,·,2.8,-1.3,1,-0.7
CN(C(=O)CSc1nc2ccccc2s1)c1c(N)n(Cc2ccccc2)c(=O)[nH]c1=O,-7%,-14,24,0.1,-0.5,5.1,-5,0.4
Cc1cccc(C)c1NC(=O)CCCSc1nnc(-c2ccco2)o1,2%&-5%,-14,1,·,-0.5,-0.6,-6,-0.3
O=C(NC(=S)Nc1ccc2c(c1)OCCO2)c1ccccc1,?,9,0,·,1.4,5.2,-1,-3.2
Cc1cccc(-c2oc3ccccc3c2-c2ccc3c(c2)OCO3)c1,·,0,-6,-3.4,6.7,3.1,7,-0.7
CC(NC(=O)Cc1cccs1)c1ccccc1 (stereo not given),-3%,-19,-18,-2.3,5.8,-1.0,2,0.4
COc1cc(CC(=O)Nc2ccccc2N2CCOCC2)cc(OC)c1OC,2%,-15,2,-11,-0.9,0.5,-12,-0.2
Cc1cc(C)n(CCCNC(=O)c2ccc3c(c2)NC(=O)CS3)n1,3%,9,3,·,2.4,3.4,-1,0.2
CCOC(=O)N1CCC(NC(=O)CCc2c(C)nc3ncnn3c2C)CC1,3%,-16,?,·,-1.1,-2.9,-2,0.4
Cc1ccc(NC(=O)C(CC(C)C)NC(=O)C2CCC(C)CC2)nc1 (stereo not given),0%,4,-47,·,1.1,1.2,3,0.2
Cc1cc(C)cc(N(CCC#N)C(=O)COC(=O)C2=COCCO2)c1,-2%,-8,-3,-0.8,3.2,0.1,1,0.3
O=C(O)Cc1c(C(=O)O)nnn1-c1ccc(Cl)cc1Cl,1%,-24,?,-0.7,-1.0,-2.7,3,-0.8
O=C(NCc1ccc(F)cc1)c1cccnc1,·,-14,1,-1.3,-2.0,0.1,·,-0.5
COc1ccc([N+](=O)[O-])cc1NC(=O)C(C)OC(=O)c1ccccc1C(=O)c1ccc(Cl)cc1 (stereo not given),·,11,-7,0.5,-4.7,3.2,3,0.6
COC(=O)C1CCN(c2cc(=O)n(-c3ccccc3Cl)c(=O)[nH]2)CC1,2%,·,·,·,3.8,·,-2,0.9
O=C(O)c1ccccc1SCc1nc2ccccn2c1Br,·,-3,7,-3.4,-6.9,-2.2,-1,1.2
O=C(NCCc1ccccc1)C(=O)NCC1OCCN1S(=O)(=O)c1cc(F)ccc1F (stereo not given),·,-2,-14,0.5,-5.2,3.9,1,0.6
Cc1ccc(NS(=O)(=O)c2ccc(OCC(=O)NCc3ccncc3)cc2)cc1,30%,-6,24,·,-4.5,0.2,6,0.0
COc1ccc(N2C(=O)CC(n3c(CCCCO)nc4ccccc43)C2=O)cc1 (stereo not given),?,-15,-1,·,0.2,8.5,2,0.1
CC(C)CC(NC(=O)c1ccccc1NC(=O)c1ccccc1)C(=O)O (stereo not given),5%,-7,-8,-0.4,0.9,-1.9,-1,-0.5
O=C1CSC(c2ccc(F)cc2)N1c1c(F)cccc1F (stereo not given),1%,-16,22,-1.6,-1.3,?,-7,-0.5
CCC1(C(=O)O)NC(c2cc(OC)ccc2O)C2C(=O)N(Cc3ccccc3)C(=O)C21 (stereo not given),0%,4,0,-4.5,2.1,-1.9,·,1.5
C=CCOc1cccc(C2/C(=C(/O)c3ccc4c(c3)CC(C)O4)C(=O)C(=O)N2CCN2CCOCC2)c1 (stereo not given),·,5,5,-1.0,-0.1,0.3,-5,0.4
N#C/C(=C\c1cc2ccccc2nc1N1CCOCC1)C(=O)Nc1ccc(N2CCOCC2)cc1,·,-2,1,-20,1.5,-2.0,-4,-0.4
Cc1c(C(=O)NC2CCN(Cc3ccccc3)C2)oc2ccc(Br)cc12 (stereo not given),6%,33,20,-12,0.5,1.5,5,0.9
Cc1ccc(C)c(NC(=O)C2CCCN(c3cnccn3)C2)c1 (stereo not given),-3%,7,5,0.1,-7.7,1.8,-11,0.3
COc1cccc(NC(=O)C2CCCN2S(=O)(=O)c2ccc3c(c2)n(C)c(=O)c(=O)n3C)c1 (stereo not given),·,-17,0,-1.1,-3.7,2.9,-1,1.1
Cc1c(C#N)c(=O)c(-[n+]2ccccc2)c([S-])n1-c1ccc(Cl)cc1,?,-7,4,1.5,-6.3,2.5,-1,-0.1
Oc1c(Cl)cc(Cl)cc1CNc1nccs1,·,0,-20,-0.5,0.5,?,·,0.0
c1ccc(-n2ncc3c(N4CCCC4)ncnc32)cc1,4%,-19,31,·,-4.3,-1.0,-11,-5.2
COc1ccc(C(=O)/C=C/c2ccccc2OC)c(OC(=O)c2ccc([N+](=O)[O-])cc2)c1,·,-12,-5,·,3.4,-1.2,2,0.0
Cc1oc(-c2ccc(Cl)cc2)nc1CN1CCCC(C(=O)N2CCOCC2)C1 (stereo not given),·,9,-3,1.5,-1.1,?,1,0.0
O=C(CN1C(=O)C(c2ccc(F)cc2)=NC12CCCC2)Nc1ccc(F)cc1,0%,-11,4,4.9,0.8,-3.3,32,-1.1
COc1ccc(C(=O)NCC(=O)OCC(=O)NC2CCCCCC2)cc1OC,·,·,·,-1.0,1.1,·,3,-0.5
CCOC(=O)C1=C(C)NC(=O)NC1c1ccc(Br)s1 (stereo not given),-7%&-1%,6,10,·,0.0,-1.7,4,0.4
S=c1[nH]nc(Cc2ccccc2)n1-c1cccc2ccccc12,32%,11,27,0.7,10,-2.6,2,1.1
O=Cc1ccc(C(=O)OCC(=O)Nc2ccc(F)cc2F)cc1,·,-8,-1,-2.2,-7.8,3.9,-1,-3.6
C=CCn1c(COc2cccc3cccnc23)nnc1SCC(=O)O,2%,-12,2,·,8.9,1.6,2,1.2
Cc1cc(C)nc(Nc2nc3ccccc3[nH]2)n1,1%,-2,8,·,-3.2,-1.1,1,-3.4
CN(C)C(CNS(=O)(=O)c1ccc2ccccc2c1)c1ccccc1 (stereo not given),0%,7,-2,-0.5,0.3,-5.9,1,-0.4
O=C(Nc1ccc(Cl)cc1)c1cccc(NC2=NC3CS(=O)(=O)CC3S2)c1 (stereo not given),·,3,-15,-11,-1.6,8.4,1,·
Cc1c(NC(=O)C(C)OC(=O)CCOc2ccccc2)c(=O)n(-c2ccccc2)n1C (stereo not given),·,-12,-4,-5.9,-24,·,-3,0.5
CCOC(=O)c1ccc(NS(=O)(=O)c2cc(-c3nnnn3C(C)C)ccc2OC)cc1,5%,0,0,·,-4.3,3.8,5,0.4
O=C(Nc1nc(N2C(=O)c3ccccc3C2=O)n(-c2ccccc2)n1)c1ccccc1,·,-14,-7,·,-2.3,1.9,-8,0.8
CS/C(=C\[N+](=O)[O-])Nc1ccc(C)cc1,11%,-24,22,-9.5,-4.9,-1.5,-7,1.4
CC1(C)Cc2c(c(N3CCOCC3)nc3sc4c(N5CCOCC5)nnnc4c23)CS1,0%,16,-6,·,-0.8,2.3,7,-0.1
OCC[C@@H]1C[C@H](O)[C@@H](O)[C@@]2(Cc3ccccc3CO2)O1,·,4,17,1.2,0.4,4.2,-2,0.9
CCOc1ccc(-c2nnn(CC(=O)N3CCN(c4ccc(OC)cc4)CC3)n2)cc1OCC,16%&-6%,4,-5,·,4.2,0.5,-6,-0.1
CCC(=O)N1C(C(=O)NCc2ccc(OC)cc2)CSC1c1ccc(OC)cc1 (stereo not given),6%,1,-3,1.7,-4.2,4.6,-6,0.3
O=C(CCc1nnc(-c2ccc(-c3ccccc3)cc2)o1)N1CCCCC1,2%,10,29,-4.2,1.6,-2.1,·,-0.8
COc1ccccc1Nc1nc(NCCO)c2ccccc2n1,-3%,25,-3,·,·,0.1,·,·
O=[N+]([O-])c1ccccc1S(=O)(=O)Nc1ccc(-c2ccc3nncn3n2)cc1,-8%,2,8,-1.4,-1.9,3.2,-6,-0.1
CN(C)CCNC(=O)c1cc2cc(Br)ccc2oc1=O,-5%,-11,-23,·,-0.5,0.0,-5,0.8
COc1ccc(Cc2nnc(NC(=O)c3ccc(OC)cc3OC)s2)cc1,·,21,2,-4.5,-0.5,?,-2,-0.1
CCCn1c(=O)c2ccccc2n2c(SCCOc3ccccc3F)nnc12,3%,18,6,·,-0.1,5.1,-2,1.4
CC(C)c1cccc(C(C)C)c1NC(=O)COC(=O)C1=COCCO1,-9%,-4,-25,-2.9,-0.3,0.5,-9,0.4
COc1ccc(NC(=O)CCCOc2ccc(Cl)c(C)c2)cc1S(=O)(=O)N1CCOCC1,2%,·,·,-2.4,-3.6,·,-3,1.0
O=C(CN1C(=O)NC2(CCCC2)C1=O)NNC(=O)c1ccc(Cl)cc1,0%,·,·,-2.1,-1.5,·,-7,-1.0
COc1ccccc1CN(C)C(=O)CNC(=O)c1cccc(Cl)c1,7%,-5,-8,7.1,-0.9,-3.7,-1,0.0
# Next section:
SMILES,Vif TR-FRET,T cruzi inh,Calb FLC,AF4-AF9 inh,LANA-H2B inh,RanGTP-Imp inh,Beta cell apopt,Bfl-1 A1 inh
Cc1cc2ccccn2c1C(=O)Nc1ccc(Cl)cc1,-7%,-8,9,0.0,-5.4,-0.2,6,-1.0
Cc1ccc(S(=O)(=O)NCCN2CCOCC2)cc1,-2%,-13,-5,·,9.2,-1.5,3,?
O=C(c1cc2ccccc2c(=O)o1)N1CCc2ccccc2C1,3%,-7,2,·,3.9,0.5,-1,0.5
COCCCNC(=O)c1ccc2c3c(onc13)-c1ccccc1C2=O,18%,16,-14,·,11,-56,19,-1.4
Cc1ccc(C(=O)O/N=C(\N)c2ccccc2)c(Cl)c1,1%,-16,-1,·,-4.3,2.4,·,-7.7
O=C(NNC(=O)c1cccs1)c1ccc(Cl)nc1,8%,-1,-4,0.8,6.5,0.1,-1,-0.8
CCN(CC)C(=O)Cn1cc(S(=O)(=O)CC(=O)NCCc2ccccc2)c2ccccc21,·,8,0,-1.4,-2.1,0.7,-3,-0.3
CCOc1ccccc1/C=N/NC(=O)c1cccc(S(=O)(=O)N(CC)CC)c1,-6%,-5,35,-6.2,0.8,1.1,-3,0.0
CN(C)/C=N/C(=S)Nc1ccc(Br)cc1F,24%,-5,-5,·,0.3,-3.3,-3,-6.7
O=C(NCC1CCCO1)c1ccc2c(c1)C(=O)N(c1cccc([N+](=O)[O-])c1)C2=O (stereo not given),·,-7,-2,-5.8,-4.1,3.8,-5,0.3
CCOc1ccccc1NC(=O)C1CCN(S(=O)(=O)c2ccc(OC)c(OC)c2)CC1,4%,-4,-1,3.4,-4.3,1.9,0,0.3
Cc1cc(C(=O)COc2ccccc2C#N)c(C)n1C1CC1,·,-9,-1,1.7,-2.7,·,7,0.5
COc1cc(/C=N/N=C(/C(=O)c2ccccc2)c2ccccc2)cc(OC)c1O,2%,14,28,·,1.3,4.5,11,-0.1
COc1cc(CC(=O)OCC(=O)Nc2cc([N+](=O)[O-])ccc2F)cc(OC)c1OC,3%,-10,-15,-0.5,-0.1,-1.0,-18,0.6
Cc1ccc2c(C)c(C(=O)N3CCCCC3CO)oc2c1C (stereo not given),·,-2,-4,1.2,3.9,-1.2,-1,-3.6
CC(C)C(=O)NNS(=O)(=O)c1ccccc1[N+](=O)[O-],·,1,4,·,-3.9,0.2,-9,0.8
